Screens: PubChem, ICCB-Longwood Screening Facility, Harvard Medical School
Vaccinia pol inh = vaccinia E9 polymerase processive synthesis inhibitors, primary screen, biochemical, absorbance; Vaccinia virus DNA polymerase (E9) processive complex; in vitro processive DNA synthesis, absorbance read-out; hits give low values; some inactives read as strong as hits; normalized absorbance, % (test concentration not listed); 46,000 compounds, 0.94% hits;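 active = replicate mean up to 90% and picked by the depositor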;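 also: 100% = median of the test wells of a plate; 100 nL library stock went into each well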
Numbers without * were called inactive. Some of the compounds tested; the hit share may differ from the screen's.

SMILES	Vaccinia pol inh
COc1ccc(C)cc1NC(=O)c1c(Cl)nc2sccn12	96
COc1ccccc1N1CCN(S(=O)(=O)/C=C/c2ccccc2)CC1	87
COC(=O)COc1ccccc1O	100
Cc1c(C(=O)NCc2cccc(Cl)c2)oc2c1-c1[nH]ncc1CC2	102
CCOC(=O)c1cc2c(=O)n3ccccc3nc2n(C)c1=NC(=O)c1cccc(C)c1	97
Cn1c(=NC(=O)COc2ccccc2)sc2ccccc21	94
COc1ccc(-n2cnc3ccccc3c2=O)cc1OC	99
CC(C)N(C(=O)CSc1ccc(Br)cc1)c1ccccc1	94
Cc1onc(NC(=O)CSCC(=O)O)c1Br	101
CSc1scc(N)c1S(=O)(=O)C(C)C	98
Cc1ccc(-c2csc(NC(=O)/C=C/c3ccccc3)n2)o1	90
COc1cc2cc(C)nc(C)c2cc1OC	68*
Cc1ccc(C=C2C(=O)NC(=O)NC2=O)cc1	100
CC1(C)Cc2ccccc2C(c2cc3ccccc3oc2=O)=N1	100
CCCN1C(=O)C(C#N)=C(C)/C(=C\c2ccc(-c3ccc(Cl)cc3)o2)C1=O	100
CCc1ccc(NC(=O)C(C)OC(=O)c2cnc(Cl)c(Cl)c2)cc1 (stereo unspecified)	95
CS(=O)(=O)c1ccc2nc(NC(=O)c3ccc4c(c3)CCCC4)sc2c1	100
O=C1CCCN2N=C(SCC(=O)N3CCCC3)SC2=N1	102
NS(=O)(=O)c1cc(Cl)ccc1Cl	99
Clc1ccc(CSc2ncccn2)cc1	100
CN(c1ccccc1N(C)S(=O)(=O)c1ccccc1)S(=O)(=O)c1ccccc1	100
COc1ccc(-n2ccnc2SCC(=O)Nc2nccs2)cc1	100
O=C(NCc1ccccc1)c1ccc(-n2c(-c3ccccc3)cc3c2CCCC3)cc1	104
Cn1cnnc1S/C=C/C(=O)c1ccc(Cl)cc1	106
N#CCSc1cccc[n+]1[O-]	87
O=C(Nc1nc(=S)ss1)c1ccc(Cl)cc1	102
CC1CN(CCCNC(=O)Nc2ccc(Cl)cc2)CC(C)O1 (stereo unspecified)	93
CC(C)Sc1ncnc2c1oc1ccccc12	100
CC1=CC(C)C2COC(c3ccc(OC(=O)NC4CCCCC4)cc3)C1C2C (stereo unspecified)	99
CCCCCC1OC1C/C=C\C/C=C\C/C=C\CCCC(=O)O (stereo unspecified)	100
O=C1CCCN=C(N(C(=O)c2ccco2)c2ccc(F)cc2F)S1	97
c1ccc2cc(CNCCc3ccc4c(c3)OCO4)ccc2c1	105
Cc1ccc(-n2nc3c(c2NC(=O)CCC2CCCCC2)CSC3)cc1	96
N#Cc1nc(CNc2ccccc2)oc1Nc1ccccc1	99
O=C(NCCn1ccc2ccccc21)C1CCCCC1	99
O=C(Nc1ccccc1)c1cc([N+](=O)[O-])ccc1Cl	96
O=C(O)c1sc2cc(F)ccc2c1Cl	98
CC(CCc1ccccc1)NC(=O)c1ccccc1C(=O)O (stereo unspecified)	100
Cc1ccc(Nc2nc(-c3c(C)nc4ccccn34)cs2)c(C)c1	100
CCOC(=O)Nc1sc2c(c1C#N)CCCC2	103
O=C1NC(c2ccc(C(F)(F)F)cc2)=CCN1c1ccccc1O	99
O=C(Nc1ccc(F)cc1)c1ccccc1NS(=O)(=O)N1CCCC1	86
CCOC(=O)c1cnn(C(=O)COc2ccc(C)c3c2CCC3)c1N	108
CSc1cccc(NC(=O)C2(S(=O)(=O)c3ccc(C)cc3)CC2)c1	104
COc1cc(C(=O)NN2CCN(C)CC2)cc(OC)c1OC	100
c1ccc(Cn2c3c(c4ccccc42)CCc2nonc2-3)cc1	100
CCCCCCCCCCCCC/C=C/[C@@H](O)[C@H](CO)NC(=O)CCCCCCC	100
Cc1ccc(S(=O)(=O)/N=C(/c2ccccc2)N2CCOCC2)cc1	100
CCC(=O)Nc1sc(C(=O)N2CCCCC2)c(C)c1C#N	91
CCc1ccc(CNC(=O)c2ccc3c(c2)ncn3C2CCCC2)cc1	109
CC1=C(C(=O)Nc2ccccc2)Oc2ccccc2N1	99
Cc1ccc(CNC(=O)C2c3ccccc3Oc3ccccc32)cc1	100
Fc1cnc(N2CCOCC2)nc1N1CCc2ccccc21	93
CCOc1cc(C=C2C(=O)NC(=S)NC2=O)ccc1OCCOc1ccc(C(C)CC)cc1 (stereo unspecified)	100
CCc1c(C#N)c(SCC(=O)c2ccc3c(c2)OCO3)nc2c1C(=O)CC(C)(C)C2	108
CC1CC(C)CN(C(=O)Cc2c(C(=O)O)[nH]c3ccc(Cl)cc23)C1 (stereo unspecified)	85
COc1ccc(-n2nnc3c(=O)n(Cc4cccc(C(F)(F)F)c4)cnc32)cc1	102
CN1CN=C(SCc2ccc(Cl)c(Cl)c2)NC1	65
CCOC(=O)c1c(CSC(=N)N)n(-c2ccccc2)c2cc(Br)c(OC(C)=O)cc12	92
O=C(CN1C(=O)/C(=C\c2ccc(C(F)(F)F)cc2)Sc2ccccc21)N1CCc2ccccc2C1	101

Next compounds follow:
SMILES	Vaccinia pol inh
CCOC(=O)N1CCC(NC(=O)c2cc(Sc3ccc(Cl)cc3)nc3ccccc23)CC1	99
Cn1ncc2c1ncn1nc(Cc3ccccc3)nc21	100
CC(C)c1ccc(NC(=O)COc2ncnc3cc(Cl)ccc23)cc1	97
CCOc1ccc(N=C2NC(=O)S/C2=C\c2ccc(OC)cc2)cc1	100
CN(C)C(=O)c1cn(-c2ccccc2)nc1-c1cccs1	104
O=C(NCc1ccccc1)C(=O)c1c(O)[nH]c2ccccc12	102
O=C(NCc1ccc2c(c1)OCO2)c1ccc(CS(=O)(=O)c2cccc(C(F)(F)F)c2)o1	101
COC(=O)C1C(=O)NC(SC)=C(C#N)C1c1ccc(Cl)cc1 (stereo unspecified)	95
COc1ccc(NC(=O)c2ccc3c(c2)NC(=O)c2ccccc2S3)cc1Cl	103
CC1(C)CCc2cc(CN3CCN(c4ccc(F)cc4)CC3)ccc2O1	100
COc1ccc(CSC2=C(C#N)C(=O)NC3(CCCCC3)S2)cc1	71*
Cc1ccc(-c2nn(C3OC(CO)C(O)C3O)c(=S)o2)cc1 (stereo unspecified)	100
CC1c2ccsc2CCN1S(=O)(=O)c1ccccc1 (stereo unspecified)	95
COC(CN1C(=O)C2C3C=CC(C3)C2C1=O)OC (stereo unspecified)	100
Cc1ccc(NC(=O)c2cc3ccccc3o2)c(C)c1	100
CC1CC(C)(C)NC(=S)N1CCC(=O)Nc1ccc(Cl)cc1 (stereo unspecified)	106
COc1ccc(C2CC(=O)N(CC(=O)NC3CCCCC3)c3ccccc3S2)cc1OC (stereo unspecified)	95
Cc1ccc(C2=CC(=O)C=CC2=O)cc1	100
Cc1ccc(-c2noc(CN(C3CCCCC3)S(=O)(=O)c3ccccc3)n2)cc1	64*
Cc1oc(-c2ccccc2)cc1C(=O)Nc1cccc(/C=C\C(=O)O)c1	101
Cn1cc[nH]c1=S	91
Cc1cc(-c2ccccc2)nc(-c2ccccc2)c1C	100
O=C(c1ccco1)N1CCN(Cc2ccccc2Br)CC1	100
N#CC(C#N)=C(Nc1ccccc1)c1ccccc1	102
COc1ccc(-n2ncc(NC(=O)N3CCOCC3)c2C)cc1	93
COc1ccccc1N(C(C)=O)S(=O)(=O)c1ccc(Cl)cc1	121
N#Cc1ccc(C(=O)Nc2sc3c(c2C#N)CCC3)cc1	101
CC(C)c1ccc(OCC(=O)N2CCC(C(N)=O)CC2)cc1	103
Cc1oc2cc(O)ccc2c(=O)c1-c1nc2ccccc2[nH]1	100
Cc1cc2[nH]c(=O)c(=O)[nH]c2cc1S(=O)(=O)N1CCC(C)CC1	95
C=C(C)Cn1c(Cc2ccccc2)nc2ccccc21	104
O=C(NCCCN1CCOCC1)c1cn(-c2ccccc2)nc1-c1ccccc1	103
c1csc(CN2CCNCC2)c1	101
Cc1cc2c(cc1S(=O)(=O)NCC1CCCO1)OCC(=O)N2 (stereo unspecified)	102
Cc1ccc2cnn(CC(=O)NC3CCCCC3)c2c1	89
O=C1CC(c2ccco2)CC2=C1C(c1ccco1)N(C(=O)C(F)(F)F)c1ccccc1N2 (stereo unspecified)	100
COc1ccc(C=Nc2cc(C(F)(F)F)ccc2-n2ccnc2)cc1	100
O=C(Nc1ccccc1C(=O)Nc1ccccc1)c1cccs1	101
COc1ccc(S(=O)(=O)N2CCC(C)CC2)cc1	100
CCOC(=O)CC(=O)c1c[nH]c2ccccc12	106

The list goes on (2 carried over from the part before).
SMILES	Vaccinia pol inh
COc1ccc(S(=O)(=O)N2CCC(C)CC2)cc1	100
CCOC(=O)CC(=O)c1c[nH]c2ccccc12	106
C(=N\c1nnc2nc[nH]n12)/c1ccco1	100
CCOc1ccc(Cn2nnc(-c3ccc(S(C)(=O)=O)cc3)n2)cc1OCC	100
O=C(NCCc1ccccc1)c1sc(=S)n2c1[nH]c(=O)c1ccccc12	97
CC(=O)NC1=C(c2ccc(Br)cc2)C(=O)c2ccccc2C1=O	103
Cn1c(CC#N)n[nH]c1=S	101
CCOC(=O)c1c(CSc2ccc(C)cc2)n(C)c2cc(Br)c(O)c(CN(C)C)c12	95
Cc1cc(-c2ccccc2)n2ncnc2n1	100
CCc1ccc(NC(=O)Nc2nnc(N3CCCC3)s2)cc1	106
O=C(Cn1c(=O)c2sccc2n(CC(=O)Nc2cccc(F)c2)c1=O)NCCc1ccccc1	98
Cc1nc(SCC(=O)O)c2oc3ccccc3c2n1	99
CCCn1c(C(C)NC(=O)c2ccccc2)nc2ccccc21 (stereo unspecified)	101
COc1cccc(C(=O)N=c2sc3cc(S(C)(=O)=O)ccc3n2C)c1	102
NC(=O)Cn1cnc2sc3c(c2c1=O)CCC3	91
CCOC(=O)c1ccc(NC(=S)NCCOC23CC4CC(CC(C4)C2)C3)cc1	87
CCSc1nc(C)c2cc(OC)ccc2n1	100
COc1nncc(-c2cnnc(SC)n2)n1	101
CC1CCCC(N(Cc2ccco2)C(=O)NCc2noc3ccccc23)C1C (stereo unspecified)	104
COc1cc(/C=C2\SC(=S)N(C(C)C)C2=O)ccc1OCC(N)=O	89
O=C(CCc1cn(Cc2ccc(F)cc2)c2ccccc12)NCC1CCCO1 (stereo unspecified)	101
O=c1cc(CO)oc(CN2CCN(c3ccccc3F)CC2)c1O	102
O=C(O)CC(CC(=O)Nc1ccc(Oc2ccccc2)cc1)c1ccccc1 (stereo unspecified)	101
CCN1CCN(c2ncnc3c2c(-c2ccccc2)cn3-c2ccc(Cl)cc2)CC1	99
O=S1(=O)CCC(NC2CCS(=O)(=O)C2)C1 (stereo unspecified)	104
COc1ccc(CCn2nnc3ccccc3c2=O)cc1OC	104
CCN(CC)C(=O)C(C(=O)c1ccccc1)n1cc(Cl)ccc1=O (stereo unspecified)	100
Cc1ccc(C(=O)N/C(=C/c2ccccc2F)C(=O)N2CCCCC2)cc1	100
CC(=O)N1C(NCc2ccccc2)CC(C)N1c1ccccc1 (stereo unspecified)	91
Cc1ccc(C)c(CSCc2nc3ccccc3[nH]2)c1	100
CCn1c(C(=O)O)c(CNCCc2ccccc2)c2ccccc21	99
Cc1cc(C)cc(NC(=O)Nc2ccc(N3CCCCC3)cc2)c1	115
CN1CCC(c2cccs2)=N1	98
CC1Cc2ccccc2N1S(=O)(=O)c1cnc[nH]1 (stereo unspecified)	101
O=S(=O)(NCCCN1CCOCC1)c1ccc2ccccc2c1	100
COc1ccc(Cl)c(N=C2NC(=O)/C(=C\c3cccnc3)S2)c1	100
Cc1ccc(SCC(=O)N(c2ccccc2)C(C)C)cc1	97
Cc1onc(-c2ccccc2Cl)c1C(=O)N1CCCCC1C (stereo unspecified)	103
CC(=O)N1CC(c2cnc(-c3ccccc3)c(C)c2)C=C(C)C1c1ccccc1 (stereo unspecified)	102
CCOC(=O)NC(=S)c1cccn1C	106
CCOC(=O)Cc1cc(C(=O)c2ccc(OC)cc2)sc1-c1ccc(OC)cc1	92
O=C(NCCSc1nc2ccccc2o1)c1ccccc1	99
O=C(COc1ccccc1)Nc1nc2ccc(Cl)cc2s1	100
O=C(Sc1ccc(Cl)cc1)c1ccc(-c2cccs2)s1	99
Cc1cccnc1/N=C/c1c(O)n(-c2ccccc2F)c(=O)c2ccccc12	106
Clc1ccc(CN2CCC(Cc3ccccc3)CC2)cn1	123
O=C(c1ccc(Cl)cc1)C1CN(Cc2ccco2)CCC1(O)c1ccc(Cl)cc1 (stereo unspecified)	91
COc1ccc(CNS(=O)(=O)N(C)C)cc1	99
Cc1noc2nc(-c3cccs3)cc(C(F)(F)F)c12	97
CC1CCCCC1NC(=O)c1ccc(/C=C2/Sc3ccccc3NC2=O)cc1 (stereo unspecified)	93

A section from the list above, for reference:
SMILES	Vaccinia pol inh
COc1ccc(CCn2nnc3ccccc3c2=O)cc1OC	104
CCN(CC)C(=O)C(C(=O)c1ccccc1)n1cc(Cl)ccc1=O (stereo unspecified)	100
Cc1ccc(C(=O)N/C(=C/c2ccccc2F)C(=O)N2CCCCC2)cc1	100
CC(=O)N1C(NCc2ccccc2)CC(C)N1c1ccccc1 (stereo unspecified)	91
Cc1ccc(C)c(CSCc2nc3ccccc3[nH]2)c1	100
CCn1c(C(=O)O)c(CNCCc2ccccc2)c2ccccc21	99
Cc1cc(C)cc(NC(=O)Nc2ccc(N3CCCCC3)cc2)c1	115
CN1CCC(c2cccs2)=N1	98
CC1Cc2ccccc2N1S(=O)(=O)c1cnc[nH]1 (stereo unspecified)	101
O=S(=O)(NCCCN1CCOCC1)c1ccc2ccccc2c1	100
COc1ccc(Cl)c(N=C2NC(=O)/C(=C\c3cccnc3)S2)c1	100
Cc1ccc(SCC(=O)N(c2ccccc2)C(C)C)cc1	97
Cc1onc(-c2ccccc2Cl)c1C(=O)N1CCCCC1C (stereo unspecified)	103
CC(=O)N1CC(c2cnc(-c3ccccc3)c(C)c2)C=C(C)C1c1ccccc1 (stereo unspecified)	102
CCOC(=O)NC(=S)c1cccn1C	106
CCOC(=O)Cc1cc(C(=O)c2ccc(OC)cc2)sc1-c1ccc(OC)cc1	92
O=C(NCCSc1nc2ccccc2o1)c1ccccc1	99
O=C(COc1ccccc1)Nc1nc2ccc(Cl)cc2s1	100
O=C(Sc1ccc(Cl)cc1)c1ccc(-c2cccs2)s1	99
Cc1cccnc1/N=C/c1c(O)n(-c2ccccc2F)c(=O)c2ccccc12	106
Clc1ccc(CN2CCC(Cc3ccccc3)CC2)cn1	123
O=C(c1ccc(Cl)cc1)C1CN(Cc2ccco2)CCC1(O)c1ccc(Cl)cc1 (stereo unspecified)	91
